Screens as filed in PubChem BioAssay.
HCMV UL50-53 inh = cytomegalovirus nuclear egress complex inhibition | HTRF UL50-UL53 interaction, normalized percent inhibition | inhibition, % (test concentration not listed) | hit rate 0.15% among 190,000 | AID 1918969;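 active = both replicates at 50% or more, plus weaker picks with an unusually low signal ratio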;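 also: stock transfer was 100 nL into about 20 µL; 0% = negative control wells and 100% = wells with untagged competitor protein; inactives centre near -12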
GIV-Gai inh = blocks GIV peptide binding to rat Galpha-i3 | Galpha-i3/FITC-GIV peptide fluorescence polarization, 90 min; hits give low values; scaled: aluminum fluoride 0%, vehicle 100% | P08753 | hit rate 0.42% among 210,000 | percent of control (FP), % (no concentration beside the values);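 active = replicate mean at 85% of control or lower, very high polarization wells dropped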;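 also: wells of about 15 µL received 100 nL stock; the first replicate is given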
Target sequence (P08753 whole entry, looked up): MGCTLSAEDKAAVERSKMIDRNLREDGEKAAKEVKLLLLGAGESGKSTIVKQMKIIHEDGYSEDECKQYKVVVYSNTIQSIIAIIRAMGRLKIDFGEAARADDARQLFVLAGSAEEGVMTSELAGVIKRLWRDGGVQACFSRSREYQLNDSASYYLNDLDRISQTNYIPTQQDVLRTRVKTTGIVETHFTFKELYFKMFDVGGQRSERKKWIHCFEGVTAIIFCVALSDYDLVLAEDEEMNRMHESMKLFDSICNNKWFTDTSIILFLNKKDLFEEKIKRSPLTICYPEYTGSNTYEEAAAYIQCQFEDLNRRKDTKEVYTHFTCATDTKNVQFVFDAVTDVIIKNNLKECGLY
Sa growth 42C = inhibitors of Staphylococcus aureus growth at 42 °C; relative growth, % (concentration not given with the values); S. aureus RN4220 growth, OD600, 20 h; hits give low values; hit rate 0.53% among 170,000;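 active = growth at 42 °C up to 50% and 20 or more points under that at 30 °C, or under 10% at both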;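 also: 300 nL library stock went into each well; scaled to the means of positive and negative controls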
Sa growth 42C second temp = also measured in Sa growth 42C; calls as there; relative growth, %; measured here: growth at 30 °C;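 optical density after 20 h as mean of two plates; 100% = untreated growth and lower means inhibition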
Starred values were filed as active, the others as inactive; x = no result given; & = joins results of further samples.

SMILES	HCMV UL50-53 inh	GIV-Gai inh	Sa growth 42C	Sa growth 42C second temp
Cc1ccc(NC(=O)C/C(N)=N/O)cc1	-6	102	105	86
Cc1nn(-c2ccccc2)c(C)c1CCc1nnc2sc(-c3ccccc3F)nn12	-22	107	x	x
O=C(Cn1c(=O)c2sccc2n(CC(=O)Nc2ccccc2)c1=O)NCCc1ccccc1	1	104	114	89
CCSC1=N/C(=C\c2ccc(C(C)C)cc2)C(=O)S1	x	102	98	82
COC1OC2COC(c3ccccc3)OC2C(O)C1O (configuration not stated)	5	x	76	96
COc1ccc(NC(=O)Nc2ccccc2Sc2cc(C)nc3ncnn23)cc1	-26	98	x	x
CNC(=O)CSc1nc2ccc(C)cc2[nH]1	-2	x	84	87
COc1ccc(-c2onc(C)c2-c2ccc3c(c2)OCCO3)c(O)c1	-39	x	75	68
C=C(C)Cn1c(C2CC(=O)N(c3cccc(SC)c3)C2)nc2ccccc21 (configuration not stated)	-10	x	113	90
O=C(CC1COc2ccccc2O1)NC1CCCCC1 (configuration not stated)	-14	104	106	98
COc1ccc(NC(=O)c2nn(C)c3c2CCc2sccc2-3)cc1OC	0	104	x	x
COc1ccc(N(C(=O)c2ccccc2)S(=O)(=O)c2ccc3c(c2)n(C)c(=O)n3C)cc1	-8&-7	101&96	87	85
CC(NC(=O)C1CCCN1S(=O)(=O)c1ccccc1)c1ccccc1 (configuration not stated)	-6	x	100	84
O=C(NCCN1CCCCCC1)c1cnc2sc(N3CCOCC3)nn2c1=O	-2	110	89	103
COc1ccc(CNC(=O)c2ccc(C)c(C)c2)cc1	17	x	72	100
COc1cc(NC(=O)CCN2CCC(C)CC2)cc(OC)c1	-13	x	111	95
COc1ccc2c(c1)c(-n1cccc1)c1n2CC(C)(C(=O)NC2CCCCC2)N(Cc2ccc(Cl)cc2)C1=O (configuration not stated)	-4	102	x	x
C/C=C(\C)CN1CCN(Cc2ccccc2)CC1	-7	101	105	80
O=C(Cc1nc(O)cs1)c1ccccc1	-45	105	104	90
Cc1ccc(CN(C(=O)c2ccc([N+](=O)[O-])cc2)c2ccccn2)cc1	-71	99	106	81
COc1ccc(C(C)=O)cc1N1C(=O)C2C3C=CC(O3)C2C1=O (configuration not stated)	13	103	x	x
CNC(=O)c1ccc(Cn2c(=O)c3cc(OC)c(OC)cc3n(CC(N)=O)c2=O)cc1	-13	105	x	x
COc1cccc(C(=O)c2cn(CC(=O)Nc3ccc4c(c3)OCCO4)c3nc(C)ccc3c2=O)c1	x	109	88	97
CN(Cc1ccccc1)S(=O)(=O)c1ccc2c(c1)OCC(C(=O)N1CCCC1)O2 (configuration not stated)	4	100	96	94
CCc1ccc(NC(=O)CSc2nc3ccccc3nc2Cc2ccccc2OC)cc1	x	99	72	90
COc1cc2c(=O)n(CCC(=O)NCC3CCCO3)c(=O)n(CC(=O)Nc3ccc(C)c(C)c3)c2cc1OC (configuration not stated)	5	105	92	90
Cc1cc(C)cc(NC(=O)CSc2nc(-c3ccccc3)c3cc(F)ccc3n2)c1	-9	93	104	90
CCc1ccccc1NC(=O)Cn1nnc(-c2nc(-c3ccc(C)cc3)no2)c1N	x	108	107	91
O=c1cc(O)c2sc3nc(-c4ccncc4)ccc3c2[nH]1	-79	106	93	90
CC(Nc1ccc2c(c1)OCCO2)C(=O)NC1CCCC1 (configuration not stated)	-38	x	67	80
COCCN1Cc2cccc(C(=O)Nc3cccnc3)c2C1=O	2	96	101	92
CC(C)CNC(=S)Nc1ccccc1	-9	102	109	91
O=C(NCCN1CCCC1)c1cc(Sc2cccc(Cl)c2)nc2ccccc12	x	103	137	76
N=C1S/C(=C\c2ccc(-c3ccccc3F)o2)C(=O)N1c1ccc2c(c1)OCO2	-8	106	122	58
CN(C)CCN=c1cc(-c2ccccc2)oc2ccc(Cl)cc12	x	93	21	23
COC(CNC(=O)c1cc2c(C)nc3ccccc3c2o1)OC	x	105	119	95
COc1ccc(CNC(=O)C(C)N2CCN(c3ccc(C(F)(F)F)cn3)CC2)cc1 (configuration not stated)	-16	x	96	93
COc1ccc(-c2cc(C(=O)NN)n(-c3ccccc3)n2)cc1	-27	x	91	71
N#CCC(=O)N1CCCCCC1	-10	100	104	94
CCn1cc(C(=O)OCC(=O)Nc2cc(C)cc(C)c2)c(=O)c2ccc(C)nc21	0	102	95	95
Cc1csc(SCC(=O)Nc2cc(C(C)(C)C)no2)n1	-8	x	93	75
CCN(CC)S(=O)(=O)c1ccc2c(c1)N(CC(=O)N1CCCC1)C(=O)CO2	4	105	x	x
O=C(c1csc(S(=O)(=O)N2CCC(N3CCCCC3)CC2)c1)N1CCOCC1	-23	110	x	x
O=C(OCC(=O)N1CCCCC1)c1sc2ccccc2c1Cl	-1	x	92	101
CN(C)S(=O)(=O)c1ccc(C(=O)NN2CC(=O)NC2=O)cc1	-19	x	79	91

Single records, as listed above. Screens in order: HCMV UL50-53 inh | GIV-Gai inh | Sa growth 42C | Sa growth 42C second temp
`COC(CNC(=O)c1cc2c(C)nc3ccccc3c2o1)OC` as listed: x | 105 | 119 | 95
`N=C1S/C(=C\c2ccc(-c3ccccc3F)o2)C(=O)N1c1ccc2c(c1)OCO2` as listed: -8 | 106 | 122 | 58

New compounds follow
SMILES	HCMV UL50-53 inh	GIV-Gai inh	Sa growth 42C	Sa growth 42C second temp
Cc1ccccc1C(=O)N1CCN(CCc2ccccn2)CC1	-5&-13	99&104	107	89
Cn1c(=O)n(-c2ccc(Br)cc2F)c(=O)c2sc3ccccc3c21	-19	107	109	85
CN(C(=O)c1ccc(Nc2ccnc(-c3cccc(F)c3)n2)cc1)C1CCCCC1	-6	108	x	x
Cc1c(C(=O)O)sc2ncn(CC(=O)N3CCCCC3C)c(=O)c12 (configuration not stated)	-3	106	x	x
Cc1cc(C)c(NC(=O)Cn2c(=O)n(CCC(=O)NCc3ccc4c(c3)OCO4)c(=O)c3ccccc32)c(C)c1	-9	98	93	100
CC1=NN(C(=O)c2cccc(Br)c2)C(O)(C(F)(F)F)C1 (configuration not stated)	-10	105	x	x
COc1ccccc1N1CCN(C(=O)CCSCc2ccccc2F)CC1	x	99	89	86
CCCCOc1ccc(C2=NC(c3ccncc3)=Nc3ccc(Br)cc3N2)cc1	-7	99	91	94
O=C(COC(=O)COc1ccc(Cl)cc1)NC1CC1	-26	x	80	90
N#CCC(=O)c1ccsc1	1	102	104	77
COc1cccc(C(CC(=O)Nc2cccc3ccccc23)NC(=O)c2ccccc2)c1 (configuration not stated)	-1	x	90	77
CC1Cc2cc(C(=O)Cn3nnc4ccccc4c3=O)ccc2N1S(C)(=O)=O (configuration not stated)	-52	x	70	93
CC1(C)Cc2c(c(-c3ccccc3)nc(N3CCCC3)c2C(N)=O)CO1	-14	103	88	87
C=CCn1c(CSc2nc3ccccc3s2)nnc1SCC(=O)NCc1ccco1	-10	107	102	85
CC(C)c1ccc(NC(=O)c2cc3c(s2)-c2ccccc2SC3)cc1	-14	101	108	93

A portion from the list above:
SMILES	HCMV UL50-53 inh	GIV-Gai inh	Sa growth 42C	Sa growth 42C second temp
COc1ccc(-c2cc(C(=O)NN)n(-c3ccccc3)n2)cc1	-27	x	91	71
N#CCC(=O)N1CCCCCC1	-10	100	104	94
CCn1cc(C(=O)OCC(=O)Nc2cc(C)cc(C)c2)c(=O)c2ccc(C)nc21	0	102	95	95
Cc1csc(SCC(=O)Nc2cc(C(C)(C)C)no2)n1	-8	x	93	75
CCN(CC)S(=O)(=O)c1ccc2c(c1)N(CC(=O)N1CCCC1)C(=O)CO2	4	105	x	x
O=C(c1csc(S(=O)(=O)N2CCC(N3CCCCC3)CC2)c1)N1CCOCC1	-23	110	x	x
O=C(OCC(=O)N1CCCCC1)c1sc2ccccc2c1Cl	-1	x	92	101
CN(C)S(=O)(=O)c1ccc(C(=O)NN2CC(=O)NC2=O)cc1	-19	x	79	91
Cc1ccccc1C(=O)N1CCN(CCc2ccccn2)CC1	-5&-13	99&104	107	89
Cn1c(=O)n(-c2ccc(Br)cc2F)c(=O)c2sc3ccccc3c21	-19	107	109	85
CN(C(=O)c1ccc(Nc2ccnc(-c3cccc(F)c3)n2)cc1)C1CCCCC1	-6	108	x	x
Cc1c(C(=O)O)sc2ncn(CC(=O)N3CCCCC3C)c(=O)c12 (configuration not stated)	-3	106	x	x
Cc1cc(C)c(NC(=O)Cn2c(=O)n(CCC(=O)NCc3ccc4c(c3)OCO4)c(=O)c3ccccc32)c(C)c1	-9	98	93	100
CC1=NN(C(=O)c2cccc(Br)c2)C(O)(C(F)(F)F)C1 (configuration not stated)	-10	105	x	x
COc1ccccc1N1CCN(C(=O)CCSCc2ccccc2F)CC1	x	99	89	86
CCCCOc1ccc(C2=NC(c3ccncc3)=Nc3ccc(Br)cc3N2)cc1	-7	99	91	94
O=C(COC(=O)COc1ccc(Cl)cc1)NC1CC1	-26	x	80	90
N#CCC(=O)c1ccsc1	1	102	104	77
COc1cccc(C(CC(=O)Nc2cccc3ccccc23)NC(=O)c2ccccc2)c1 (configuration not stated)	-1	x	90	77
CC1Cc2cc(C(=O)Cn3nnc4ccccc4c3=O)ccc2N1S(C)(=O)=O (configuration not stated)	-52	x	70	93

Further records follow.
SMILES	HCMV UL50-53 inh	GIV-Gai inh	Sa growth 42C	Sa growth 42C second temp
O=C(Cn1cc(S(=O)(=O)Cc2ccccc2)c2ccccc21)Nc1nccs1	-37	98	91	71
CC(=O)N1CCc2cc(C(O)CN3CCN(c4cccc(C)c4C)CC3)ccc21 (configuration not stated)	-21	100	x	x
Cc1ccc2c(c1)Cc1c(nc(-c3ccc(Cl)cc3)nc1SCC(=O)N1CCCCC1)O2	-2	109	97	99
O=C(Nc1ccc(F)cc1)C(NCc1ccco1)c1ccccc1 (configuration not stated)	0	x	87	97
O/N=C/c1cn(CC(O)COc2cccc3cccnc23)c2ccccc12 (configuration not stated)	-41	106	93	70
COc1ccc(CCNC(=O)c2cc(-c3ccccc3O)no2)cc1OC	x	94	98	90
COC(=O)c1ccccc1S(=O)(=O)NC1C2(C)CCC(C2)C1(C)C (configuration not stated)	-12	103	88	87
O=C(O)c1ccc2c3c(ncnc13)-c1ccccc1C2=O	-107	97	55	26
CCCCCOc1ccccc1CN1C(=O)C(=O)c2cccc(C)c21	-17	107	x	x
Cc1nc(-c2ccccn2)nc(N(C)c2ccccc2)c1Cl	2	112	151	53
Cn1cnnc1SCC(=O)c1ccc(C2CCCCC2)cc1	-19	x	85	70
S=C(Nc1ccccc1)N1N=C(c2cccs2)CC1c1cccs1 (configuration not stated)	-5	103	118	103
Clc1ccc(N=Cc2ccn(-c3ccccc3)n2)cc1	4	103	101	102
Nc1nc(SCC(=O)Nc2ccccc2C(=O)Nc2ccccc2)n[nH]1	-8	x	58	87
COc1ccc(COC(=O)C2=C(C)NC3=C(C(=O)CC(C)(C)C3)C2c2cc(Cl)c(O)c(OC)c2)cc1 (configuration not stated)	-18	106	x	x
